# CtBP-E1A blk: blocks the CtBP interaction with E1A; actives 0.49% (n = 340,000); AlphaScreen GST-E1A/His-CtBP binding, 1536-well; hits give low values; control for the full effect not named in the record; activity change, % (no concentration beside the values); in the data active means activity change below about -65%; inconclusive means about -30% to -65%; inactive means above about -30%; further: on the % scale 0 is the no-effect control and ±100 the full control effect; compound concentration not given in the record
#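 In 5 uL wells, 23 nL compound meets equimolar GST-E1A and His-CtBP (5X stock 125 nM each) for 2 h, 37 °C. Beads (5X, 50 ug/mL) then 1 h, 37 °C, dark.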
# D2 agonist: human D2 receptor agonism in beta-arrestin assay; P14416; DiscoveRx PathHunter D2 beta-arrestin, luminescence, 90 min; 100% = 57 uM dopamine signal; activation, % (concentration not given with the values); actives 0.084% (n = 360,000); AID 624465; in the data active = activation above about 40%; inconclusive = about 15% to 40%; inactive = below about 15%; further: compound concentration not given in the record; the text of the record calls up to 30% inactive
# Target sequence (P14416 whole entry, looked up): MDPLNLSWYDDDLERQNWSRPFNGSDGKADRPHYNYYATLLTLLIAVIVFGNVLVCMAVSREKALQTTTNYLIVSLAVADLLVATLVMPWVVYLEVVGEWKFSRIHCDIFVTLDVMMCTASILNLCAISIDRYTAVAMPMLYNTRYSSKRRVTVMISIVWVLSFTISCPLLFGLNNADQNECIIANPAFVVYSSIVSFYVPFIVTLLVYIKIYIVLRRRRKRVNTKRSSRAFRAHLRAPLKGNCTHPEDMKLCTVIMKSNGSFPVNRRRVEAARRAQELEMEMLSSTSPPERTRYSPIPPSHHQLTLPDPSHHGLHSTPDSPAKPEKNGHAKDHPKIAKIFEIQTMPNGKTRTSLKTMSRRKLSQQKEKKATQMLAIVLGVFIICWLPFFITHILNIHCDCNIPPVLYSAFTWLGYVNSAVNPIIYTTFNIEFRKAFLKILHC
#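 DiscoveRx PathHunter D2 beta-arrestin cells (2,100/well) attached overnight, then compound-stimulated 90 min at 37 C in HBSS/10 mM HEPES/0.1% Tween-20 buffer; beta-galactosidase complementation read by luminescence after 1 h at ambient temperature. Dopamine 57 uM final (EC100) as control.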
# PINK1 expr mod: changes PINK1 expression | PINK1 immunofluorescence, high-content cytometry, 24 h | Potency, µM (titrated, usually from 76.6 µM), without a hit: at the top dose activation (PINK1 increase), most hits filed as activators | actives 0.2% (n = 410,000); active = well fitted activation curve with a large enough effect; inconclusive = small, poorly fitted or top-dose-only effect; inactive = flat fitted curve, though single readings scatter; cell line not stated here;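 further: potency means the concentration at half of the fitted maximal effect; % of control where 0% means no effect; nearly all actives have a fitted effect of over 65% in size; a mitochondrial uncoupler was the plate control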
#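 Readout is PINK1 immunofluorescence, quantified alongside mitochondrial, cell and nuclear markers by laser-scanning microplate cytometry. Cells from a stable line were exposed to compound titrations (5 concentrations) for 24 hours, with CCCP controls.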
# Six1-Eya2 inh: inhibitors of human Six1/Eya2 interaction; AlphaScreen GST-Six1/His-Eya2 binding, biochemical; hits give low values; control for the full effect not named in the record; actives 0.56% (n = 360,000); Q15475+O00167; activity change, % (no concentration beside the values); in the data active = activity change below about -65%; inconclusive = about -30% to -65%; inactive = above about -30%; further: on the % scale 0 is the no-effect control and ±100 the full control effect; compound concentration not given in the record
#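 Six1/Eya2 binding was read as AlphaScreen signal after compounds were pinned into GST-Six1 plus His-tagged Eya2 (5X stock 250/500 nM) in pH 8.0 Tris/NaCl/TCEP buffer, beads added, then incubated 1 h, 37 C, dark.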
# TRPML1 ag: agonists of human TRPML1 channel; Q9GZU1; TRPML1-expressing cells, Ca2+ dye fluorescence, FDSS; host cell line not named in the record; reference of the full effect not given here; activation, % (test concentration not listed); actives 0.12% (n = 410,000); AID 624414; in the data active = activation above about 50%; inconclusive = about 30% to 50%; inactive = below about 30%; further: 0% is about no effect; the text of the record puts the active cut at 80%
# Target sequence (Q9GZU1 whole entry, looked up): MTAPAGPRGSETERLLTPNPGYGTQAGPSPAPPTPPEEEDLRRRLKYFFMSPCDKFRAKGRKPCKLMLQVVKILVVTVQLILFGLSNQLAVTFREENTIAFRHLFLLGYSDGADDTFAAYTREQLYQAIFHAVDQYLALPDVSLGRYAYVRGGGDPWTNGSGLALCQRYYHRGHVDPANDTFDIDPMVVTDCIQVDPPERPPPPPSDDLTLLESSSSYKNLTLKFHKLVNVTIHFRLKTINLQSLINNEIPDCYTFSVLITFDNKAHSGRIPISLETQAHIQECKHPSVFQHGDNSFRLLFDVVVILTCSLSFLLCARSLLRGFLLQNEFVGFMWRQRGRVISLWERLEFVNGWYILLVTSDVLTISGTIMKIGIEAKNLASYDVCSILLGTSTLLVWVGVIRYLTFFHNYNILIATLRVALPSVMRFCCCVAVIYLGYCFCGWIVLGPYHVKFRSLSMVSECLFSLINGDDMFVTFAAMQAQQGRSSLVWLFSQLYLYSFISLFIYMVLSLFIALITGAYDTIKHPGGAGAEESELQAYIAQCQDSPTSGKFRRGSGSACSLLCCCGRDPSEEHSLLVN
#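 In this qHTS format, compounds were pin-transferred onto Ca8-dye-loaded TRPML1-DL cells induced with Tet overnight, and intracellular Ca2+ fluorescence was recorded kinetically for 110 s after a 10 s baseline. A subsequent 4uM final 54-4 (EC80) addition followed by a second 110 s read served as the antagonist phase.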
# D2 PAM: potentiates the human D2 dopamine receptor allosterically. DiscoveRx D2 beta-arrestin cells, luminescence, 90 min; 100% = 57 uM dopamine signal. potentiation, % (test concentration not listed). actives 0.23% (n = 360,000). AID 624464; active = potentiation of 50% or more; inconclusive = 30% to 50%; inactive = 30% or less;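 further: compound concentration not given in the record; tested on top of an EC20 dose of dopamine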
#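 PathHunter beta-arrestin assay in DiscoveRx D2 cells. Compounds were added with an EC20 of dopamine (50 nM final) for 90 min at 37 deg C. Luminescence was read 1 h after detection reagent, with 57 uM dopamine as the EC100 control.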
# * hit, by the source's call; ? = inconclusive; / = not tested or not shown; [ ] = dose if it differs, or a comment. An unsorted share of the library; 1.3% or so of the library scored in one or more.
SMILES | CtBP-E1A blk | Six1-Eya2 inh | TRPML1 ag | PINK1 expr mod | D2 agonist | D2 PAM
COc1ccc(CN(C)C(=O)C2CSC3(C)CCC(=O)N23)cc1 (configuration not stated) | 1 | 2 | 0.5 | 1.5% | -2.4 | 10
O=C(COC(=O)c1cccc(S(=O)(=O)N2CCc3ccccc32)c1)Nc1ncc(C(F)(F)F)cc1Cl | -2 | 7 | 2.6 | 1.2% | 0.0 | -15
CC1(C)Cc2ccccc2-c2nc3n(c(=O)c21)CCCS3 | -3 | -10 | 1.4 | 5.9% | -7.1 | -1
Cc1csc(/C(=N\O)c2csc(C)n2)n1 | ? | -25 | 0.4 | / | -1.0 | -2
COc1ccc(NC(=O)CN2CCN(c3ccc(C)cc3C)CC2)cc1 | 7 | -5 | 0.9 | -0.2% | -1.7 | -12
N#Cc1c(NC(=O)CSc2n[nH]c(N)n2)oc(-c2ccccc2)c1-c1ccccc1 | -11 | -3 | -0.4 | -0.5% | 2.7 | 6
CCOC(=O)[C@@H]1[C@H]2COc3ccccc3[C@@H]2N2C(=O)N(c3ccc(Cl)cc3)C(=O)[C@@]12C | 1 | 1 | 1.9 | -1.8% | -4.7 | -8
O=C(NNC(=O)c1ccco1)c1cccc([N+](=O)[O-])c1 | 2 | 0 | -0.5 | -0.9% | -1.9 | -22
Cc1ccc(/C=N/NC(=O)CSc2nc3ccccc3s2)o1 | 5 | 3 | -1.3 | -0.9% | -4.6 | -6
Cc1cc(C)c2c(CN3CCN(Cc4ccccc4)CC3)cc(=O)oc2c1C | / | -6 | -0.5 | 9.9% | -2.0 | -13
CCC(C)NC(=O)Nc1ccc2c(c1)N(C)C(=O)c1ccccc1S2 (configuration not stated) | -3 | 6 | 9.3 | -29%[38.3 µM] | -1.5 | -5
Cc1cc2c(cc1S(=O)(=O)N1CCN(c3cccc(C(F)(F)F)c3)CC1)OCC(=O)N2 | -1 | -1 | 2.3 | 1.5% | -2.5 | -6
N#C/C(=C(/O)COC(=O)Cc1c[nH]c2ccccc12)c1nc2ccccc2[nH]1 | -24 | -17 | 1.5 | -1.8% | 0.1 | -8
COc1ccc(-c2noc(C3CCCN(C(=O)c4c(F)cccc4F)C3)n2)cc1OC (configuration not stated) | -12 | 0 | 0.9 | 2.9% | -0.1 | 2
O=C(Nc1ccc(S(=O)(=O)N2CCCC2)cc1)C1CC(=O)N(c2ccccc2)C1 (configuration not stated) | 2 | 6 | 0.3 | 0.1% | 4.3 | -7
COCCn1c(=O)c2c(nc3n2CCCN3Cc2ccccc2)n(C)c1=O | -8 | -13 | 0.3 | 0.6% | -2.5 | -2
COC(=O)CNC(=O)c1cccs1 | -1 | 4 | 0.4 | -0.2% | -2.3 | 5
Cc1ccc(C(=O)N/N=C/c2nc3ccccc3n2C)cc1 | -3 | 0 | -0.2 | 1.9%[38.3 µM] | -1.5 | -16
O=C(NCc1ccccc1)c1cccc(COc2ccc(Cl)cc2)c1 | 21 | 21 | -0.1 | -0.4% | -1.9 | 5
COC(=O)COc1cc(OCC(=O)OC)c2c(-c3ccccc3)cc(=O)oc2c1 | 10 | 0 | 0.6 | -0.1% | -1.3 | 2
CC1CC(C)CN(c2ccc(-n3cnnn3)cc2[N+](=O)[O-])C1 (configuration not stated) | -19 | -29 | 7.1 | 1.6% | -7.0 | 2
COCCCNC(=O)/C=C/[C@H]1O[C@@H](n2cnc3c(NC(=O)c4ccccc4)ncnc32)[C@H](O)[C@@H]1O | 3 | 3 | -0.4 | 1.3% | -2.9 | -2
O=C(N/N=C/c1cn(-c2ccccc2)nc1-c1cccs1)c1ccc(Cl)cc1 | -8 | -3 | 0.3 | -1.2% | -2.3 | -23
O=C1NC(=O)C2(CCC(C(=O)O)C2)N1 (configuration not stated) | 2 | 2 | -1.1 | -1.7% | -0.9 | -7
CC(OC(=O)c1cnccn1)C(=O)c1ccccc1 (configuration not stated) | -1 | 12 | 0.2 | 0.8% | 11 | 0
CCOC(=O)c1sc(=S)n(-c2ccc(OC)cc2)c1N | -12 | -6 | 0.1 | -1.3% | -3.7 | -2
CC(C)(C)n1nc2c(c1NC(=O)c1ccc(S(=O)(=O)N3CCCCC3)cc1)CS(=O)C2 (configuration not stated) | 1 | 4 | 0.1 | -0.4% | -2.8 | 10
CC1CCCN(S(=O)(=O)c2ccc(NC(=O)Cn3nnc(-c4ccccc4F)n3)cc2)C1 (configuration not stated) | -5 | -9 | 2.1 | 21%[38.3 µM] | 1.4 | 15
O=C(CSc1nc2scc(-c3ccccc3)c2c(=O)[nH]1)Nc1ccccc1 | 0 | 17 | 0.4 | 16% | -3.9 | -17
CC1(C)Cc2c(C#N)c(N3CCN(C(=O)c4ccco4)CC3)nc(Cc3ccccc3)c2CO1 | 0 | -1 | 0.4 | 3.0% | -3.8 | -15
Cc1ccc(Sc2ccc([N+](=O)[O-])cc2[N+](=O)[O-])nc1 | 0 | -21 | -0.6 | 6.5% | 3.4 | 22
CCOc1cc(C(=O)Nc2cccc3ncccc23)cc(OCC)c1OCC | 6 | -1 | -0.2 | ? | -2.9 | -5
CCCOc1cccc(C(=O)N(Cc2ccco2)C2CCS(=O)(=O)C2)c1 (configuration not stated) | 0 | 5 | -0.5 | -2.3% | -0.6 | 0
CC(C)(C)NS(=O)(=O)c1ccc(N2C(=O)c3ccccc3C2=O)cc1 | -5 | 6 | -0.3 | / | 2.6 | -13
CC1CCC2(CC1)NC(=O)N(CC(=O)Nc1ccc(N3CCOCC3)cc1)C2=O (configuration not stated) | / | -1 | -0.8 | -0.6% | -0.1 | 2
Cc1ccc(CNC(=S)Nc2cc(C)ccc2OC(F)F)cc1 | 2 | 2 | 1.7 | 1.3% | -10 | -16
COc1ccc(CC(=O)NCCc2ccc(S(N)(=O)=O)cc2)cc1 | 4 | 9 | 0.7 | 0.1% | 0.6 | -5
COc1cccc(CN(C)C(=O)c2ccccc2Sc2ccccc2C#N)c1 | -2 | 5 | 2.5 | 0.4% | 0.4 | -9
O=C(O)C1CC(=O)N(c2ccc(OCc3c(F)cccc3Cl)cc2)C1 (configuration not stated) | 3 | 5 | -1.0 | 1.3% | -2.1 | -11
CCc1cccc(NC(=O)C2CCCN(c3ncnc4c3nc3n4CCCCC3)C2)c1 (configuration not stated) | -18 | -3 | 3.1 | 0.7% | -2.7 | -10

# In another format: results already given.
COc1ccc(NC(=O)CN2CCN(c3ccc(C)cc3C)CC2)cc1
  CtBP-E1A blk: 7; Six1-Eya2 inh: -5; TRPML1 ag: 0.9; PINK1 expr mod: -0.2%; D2 agonist: -1.7; D2 PAM: -12

N#Cc1c(NC(=O)CSc2n[nH]c(N)n2)oc(-c2ccccc2)c1-c1ccccc1
  CtBP-E1A blk: -11; Six1-Eya2 inh: -3; TRPML1 ag: -0.4; PINK1 expr mod: -0.5%; D2 agonist: 2.7; D2 PAM: 6

CCOC(=O)[C@@H]1[C@H]2COc3ccccc3[C@@H]2N2C(=O)N(c3ccc(Cl)cc3)C(=O)[C@@]12C
  CtBP-E1A blk: 1; Six1-Eya2 inh: 1; TRPML1 ag: 1.9; PINK1 expr mod: -1.8%; D2 agonist: -4.7; D2 PAM: -8

O=C(NNC(=O)c1ccco1)c1cccc([N+](=O)[O-])c1
  CtBP-E1A blk: 2; Six1-Eya2 inh: 0; TRPML1 ag: -0.5; PINK1 expr mod: -0.9%; D2 agonist: -1.9; D2 PAM: -22

# (continued)
SMILES | CtBP-E1A blk | Six1-Eya2 inh | TRPML1 ag | PINK1 expr mod | D2 agonist | D2 PAM
CCCS(=O)(=O)NC(=O)C1(C)CCCN(C(=O)c2c(C)noc2C)C1 (configuration not stated) | -18 | 14 | 0.6 | -0.6% | -4.6 | -13
O=C(CCNC(=O)c1ccccc1Cl)NCc1cccnc1 | -3 | 9 | 0.6 | -2.0% | 4.6 | -23
O=Cc1nc(-c2ccccc2Cl)n2ccccc12 | 8 | 8 | -0.1 | / | -1.4 | 13
CCN1C(=O)/C(=C/C=C2/CCCN2C)OC1=S | 0 | -3 | 9.4 | 4.0% | -8.6 | -8
COc1cccc(NC(=S)N2CCCC2c2ccc(OC)c(OC)c2)c1 (configuration not stated) | -3 | 4 | -0.8 | 2.5% | 1.0 | 3
CC(C)Cn1nc(NC(=O)C2CCCO2)c2cc3ccccc3nc21 (configuration not stated) | 20 | 29 | 0.9 | 0.0% | 0.8 | ?
CCOc1ccc(C2/C(=C(/O)c3ccc4c(c3)CC(C)O4)C(=O)C(=O)N2CCCn2ccnc2)cc1 (configuration not stated) | -23 | -2 | -0.6 | -0.4% | -1.6 | -7
COc1ccccc1-n1c(SCC(=O)O)nc2c(sc(=S)n2-c2ccccc2C)c1=O | -3 | -1 | 0.3 | -0.7% | -2.7 | -25
COc1ccc(OCC(=O)Nc2ccc(N3CCC(C)CC3)cc2)cc1 | -2 | -4 | -0.2 | 0.7% | -0.8 | 1
COc1ccc(CNC(=O)C2=C(C)C(=O)OC23CCC(C)CC3)cc1 (configuration not stated) | 3 | 3 | 0.5 | 2.5% | 0.3 | -3
Fc1ccc(NC(=S)NCCc2ccc(Cl)cc2)cc1 | 9 | 6 | 1.2 | 0.5% | -1.2 | -15
Cc1ccc(C(=O)N2CCCC(CCC(=O)N3CCN(c4ccccn4)CC3)C2)s1 (configuration not stated) | 1 | 2 | 0.1 | 2.6% | -0.6 | 7
C#CCOn1c(-n2nc(C)cc2C)nc2ccccc2c1=O | 0 | 4 | 0.6 | 1.7% | -3.7 | -3
COC(=O)Nc1ccc(S(=O)(=O)N2CCCCC2C(=O)O)cc1 (configuration not stated) | 5 | 1 | -0.2 | 3.2% | 0.2 | 0
O=C(O)C1=C[C@@H](c2ccc(Br)cc2)C[C@@H](OCc2ccc(CO)cc2)O1 | 0 | 0 | -0.4 | 2.6% | 0.4 | -8
O=C(N/N=C/c1ccco1)c1cccc(NC(=O)c2ccccc2Cl)c1 | -3 | -16 | -0.6 | 1.0% | 0.7 | -4
COc1ccc(N(CC(=O)NC2CCS(=O)(=O)C2)S(=O)(=O)c2ccc(Cl)c(Cl)c2)cc1 (configuration not stated) | -6 | 6 | 0.2 | 6.5% | -0.9 | -28
O=C(Nc1ccc2ncccc2c1)c1ccccc1 | 12 | -1 | -0.4 | 0.3% | -1.1 | 2
CCOC(=O)c1c(C)[nH]c(C)c1S(=O)(=O)NCC1CCN(Cc2cccc(F)c2)CC1 | / | -9 | 0.8 | 0.2% | -0.9 | -22
Cc1cc(C(F)F)n2ncc(C(=O)O)c2n1 | 13 | 2 | 1.3 | / | -0.6 | 13
Cc1ccc(-n2ccnc2SCC(=O)O)cc1C | 1 | 3 | / | 2.4% | 0.5 | -1
Cc1ccc(-n2ncc3c(=O)n(CC#N)cnc32)cc1C | -8 | 11 | 0.2 | -0.3% | 0.5 | -10
C[C@H](NC(=O)c1nc[nH]c1C(=O)NCCCCCNC(=O)OC(C)(C)C)C(=O)OCc1ccccc1 | -2 | 0 | 2.7 | 2.2% | ? | 28
Cc1ccc(S(=O)(=O)N2CCN(C(=O)COC(=O)CCc3ccccc3)CC2)c(C)c1 | / | -5 | -0.8 | 1.4% | -1.7 | -8
CCOc1cc(-c2ccc(N)c(OCC)c2)ccc1N | -29 | ? | 0.6 | 6.3% | 0.7 | -10

# High-throughput results as filed in PubChem BioAssay.
